MT1-MMP promoter: MT1-MMP gene expression reporter suppression – cell-based, luciferase reporter, luminescence (AID 618); MT1-MMP promoter luciferase reporter cells, luminescence; calls from a first round at 10 µM; hits with a dose series show EC50 in µM; hit rate 0.62% among 87,000;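 active = over half of the reporter light lost at 10 µM or EC50 under 50 µM; inactive = the rest and hits that failed the dose series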;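 note: actives suppress MT1-MMP promoter-driven transcription so potencies describe inhibitors; HT1080 fibrosarcoma cells; overnight exposure; toxic or luciferase-blocking compounds were not removed from the actives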
Hsc70: small molecules displacing fluorescent ligand from Hsc70 – biochemical, fluorescence polarization, primary screen (AID 568) | Hsc70 fluorescence polarization, probe displacement; higher % means a stronger effect; strong numbers were not always called active | 83,000 tested, under 10 active | one-dose displacement, % at 20 µM; IC50 in µM for titrated hits;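 active = displacement above 50% without optical interference and an IC50 on retest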;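 note: ATPase domain with a fluorescein-tagged ATP probe; 0% = vehicle and 100% = excess ADP; read after one hour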
WNV NS2B-NS3 inh: blocks West Nile virus NS2B-NS3 protease activity. P06935. AID 577. WNV NS2B-NS3 protease, fluorogenic substrate Ex360/Em465; hits give low values. hit rate 0.18% among 65,000. z-score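 (tested at a level between 10 and 100 µM)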;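 active = z-score at -3 or under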;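 note: score is relative to mean and spread of the compound wells of a plate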
Target sequence (P06935 1371-1501 limits assumed): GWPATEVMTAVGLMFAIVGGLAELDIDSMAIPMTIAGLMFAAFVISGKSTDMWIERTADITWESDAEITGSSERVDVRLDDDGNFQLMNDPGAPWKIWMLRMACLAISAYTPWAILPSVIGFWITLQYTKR
Target sequence (P06935 1502-1679 limits assumed): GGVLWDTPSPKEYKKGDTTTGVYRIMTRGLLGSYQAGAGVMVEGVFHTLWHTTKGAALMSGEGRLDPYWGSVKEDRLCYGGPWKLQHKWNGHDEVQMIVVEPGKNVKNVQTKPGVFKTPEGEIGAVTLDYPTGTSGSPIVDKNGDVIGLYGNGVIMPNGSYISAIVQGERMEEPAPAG
* marks the source's active call; other numbers are inactive results; i = inactive; . = no result given. Not all compounds are listed; the hit share may differ from the screen's.

SMILES	MT1-MMP promoter	Hsc70	WNV NS2B-NS3 inh
O=C(COC(=O)c1ccncc1)NCc1ccccc1	i	5.7%	-0.69
Cc1ccc2c(C)ccc(O)c2n1	i	4.3%	.
CCc1ccccc1NC(=O)/C(=C/c1ccco1)c1ccccc1	i	-3.3%	.
Cc1ccc(N2C(=O)C(Cl)=C(N3CCN(C)CC3)C2=O)c(C)c1	i	-2.2%	.
CCOc1ccc(N2C(=O)CC(N(O)c3ccccc3)C2=O)cc1 (stereo unspecified)	i	-3.2%	-1.1
O=C(CCc1ccccc1)Nc1nnc(-c2cccs2)o1	i	-0.3%	-1.5
O=C(c1cccc(C(F)(F)F)c1)N1CCN(C2CCCCC2)CC1	i	0.3%	0.05
Cc1nnc(NC(=O)CSc2nc3c(c(=O)n2C)SC(C)C3)s1 (stereo unspecified)	i	-2.3%	-1.1
Cc1sc2ncnc(Sc3nnc4sc5ccccc5n34)c2c1C	i	2.5%	3
CCc1ccc(NC(=O)CSc2nnc(-c3ccccn3)n2C)cc1	i	1.0%	-0.63
Cc1ccc(NC(=O)CSc2nnc(Cc3cccn3C)n2-c2ccc(F)cc2)c(C)c1	i	6.9%	0.95
O=C(O)CCSCC(=O)c1ccc2c(c1)OCCO2	i	-0.6%	0.37
O=C(O)C1CC=CCC1C(=O)NCc1ccccc1 (stereo unspecified)	i	3.9%	1.5
COc1ccc(OCCSc2nnc(CC(=O)Nc3cccc(Cl)c3Cl)n2C)cc1	i	-1.1%	.
CCc1ccc(C2C(C#N)=C(N)SC(N)=C2C#N)cc1	i	-48%	-0.55
Cn1c2c(c(=O)n(C)c1=O)C(c1cccc([N+](=O)[O-])c1)Nc1ccccc1O2 (stereo unspecified)	i	5.3%	.
N#Cc1c(N2CCOCC2)nc(N2CCCCC2)c2c1CCN(C1CCCCC1)C2	i	-2.6%	0.34
Cc1ccnc2nc(C(=O)NCc3cccs3)nn12	i	-3.2%	.
CSc1nsc(SCC(=O)Nc2ccc3c(c2)OCCO3)n1	i	-2.8%	1.6
C=CCNc1nc(NCCO)nc(N2CCCC2)n1	i	-0.9%	-0.03
COc1cccc(C2/C(=C(\O)c3ccc(OC)c(OC)c3)C(=O)C(=O)N2c2cc(C)on2)c1 (stereo unspecified)	i	3.2%	0.58
CCOC(=O)N1CCC(NC(=O)CS(=O)(=O)Cc2nc(-c3ccc(C)cc3)oc2C)CC1	i	0.5%	-0.34
CCOC(=O)C1CCN(c2c(NCc3ccc(C(=O)NCCC(C)C)cc3)c(=O)c2=O)CC1	i	3.9%	-0.82
O=C(CSc1nc2ccccc2s1)NCCCN1CCOCC1	i	-9.5%	0.48
Cc1occc1-c1nnc(SCC(=O)Nc2ccccc2)n1C(C)c1ccccc1 (stereo unspecified)	i	1.0%	0.0022
Cc1[nH]nc(N=CC2=C(O)CC(C)(C)CC2=O)c1-c1ccccc1	i	-7.3%	1.6
Nc1ccc(CC2SC(=O)NC2=O)cc1 (stereo unspecified)	i	1.5%	.
C=CCSc1nncn1/N=C/c1ccc(OC)cc1	i	-0.2%	0.78
COCCn1c(=N)c(C(=O)NCCc2ccccc2)cc2c(=O)n3cccc(C)c3nc21	i	3.5%	2.5
CCOC(=O)Nc1ccc2c(c1)N(C(=O)CN1CCN(C)CC1)c1ccccc1S2	i	1.9%	-0.57
COC(=O)c1ccc(-n2nnnc2SCc2nn[nH]n2)cc1	i	4.6%	-0.05
O=C(CCn1c(=O)oc2ccccc21)Nc1ccccc1	i	-13%	0.28
Cn1c(NC(=O)c2ccccc2NC(=O)C(C)(C)C)nc2ccccc21	i	1.6%	-0.69
Cc1ccc(S(=O)(=O)N(CC(=O)O)Cc2ccccc2F)cc1	i	-3.3%	-0.31
Cc1cccc(OCC(O)Cn2c(=N)n(CCN3CCOCC3)c3ccccc32)c1 (stereo unspecified)	i	0.1%	-0.67
COc1ccc(Cc2nnc(NC(=O)C3CCCO3)s2)cc1 (stereo unspecified)	i	2.9%	-0.09
CCOC(=O)c1[nH]c(C)c(C(=O)N2CCOCC2)c1C	i	6.4%	2.6
CC1(C)Cc2c(sc3nc4n(c(=N)c23)CCC4)CO1	i	-7.3%	-0.76
COC(=O)/C(=C(/F)SCC(C)=O)C(F)(F)F	i	4.6%	.
COc1ccc(-c2ccc(C#N)c(SCC(=O)Nc3sc4c(c3C#N)CCC4)n2)cc1	i	-1.3%	.
CCOc1cc(NC(=O)C2CCCCC2)c(OCC)cc1NC(=O)c1ccco1	i	-6.4%	-0.24
Cc1ccc2cc(CN(CCCO)S(=O)(=O)c3cccc4nsnc34)c(=O)[nH]c2c1C	i	-8.6%	-0.53
O=C(Cn1c(-c2cscn2)nc2ccccc21)Nc1ccc(Cl)cc1	i	0.7%	.
Cc1ccc(/C(=N\O)c2oc3c(C)c4oc(=O)cc(C)c4cc3c2C)cc1	i	-7.6%	.
COCCOC(=O)C1=C(C)NC(SCC(=O)NC(C)(C)C)=C(C#N)C1c1ccco1 (stereo unspecified)	i	-1.4%	0.23
CCC1SC2=NC(C)=C(C(=O)OCCOC)C(/C=C/c3ccccc3OC)N2C1=O (stereo unspecified)	i	-3.3%	.
Cc1ccc(-n2ncc3c(=O)n(CC(=O)N4CCCc5ccccc54)cnc32)cc1C	i	-4.2%	0.91
O=C(CN(CCc1ccccc1)C(=O)Cn1nnc(-c2cccs2)n1)NCc1ccco1	i	-1.7%	0.81
COc1ccc(OC)c(C2N(c3ccc(Cl)cc3)C(=O)C3CCCN32)c1 (stereo unspecified)	i	-9.1%	-0.82
C=CCNS(=O)(=O)c1ccc2nsnc2c1	i	1.3%	-0.75

Five compounds drawn at random from those above, as already listed:
SMILES	MT1-MMP promoter	Hsc70	WNV NS2B-NS3 inh
Cc1ccc(/C(=N\O)c2oc3c(C)c4oc(=O)cc(C)c4cc3c2C)cc1	i	-7.6%	.
Cc1ccc(-n2ncc3c(=O)n(CC(=O)N4CCCc5ccccc54)cnc32)cc1C	i	-4.2%	0.91
CCOc1cc(NC(=O)C2CCCCC2)c(OCC)cc1NC(=O)c1ccco1	i	-6.4%	-0.24
Cc1ccc2cc(CN(CCCO)S(=O)(=O)c3cccc4nsnc34)c(=O)[nH]c2c1C	i	-8.6%	-0.53
C=CCNS(=O)(=O)c1ccc2nsnc2c1	i	1.3%	-0.75

(listing goes on)
SMILES	MT1-MMP promoter	Hsc70	WNV NS2B-NS3 inh
Cc1ccc(-c2nnn(CC(=O)NC3CCN(Cc4ccccc4)CC3)n2)cc1	i	2.0%	.
Cc1c(O)ccc(/C(Cc2ccc3ccccc3n2)=N\O)c1O	i	-3.1%	.
CC(C)Oc1ccc(/C=N/NC(=O)C(CSCc2ccccc2)NC(=O)c2ccc([N+](=O)[O-])cc2)cc1 (stereo unspecified)	i	-2.1%	.
CCn1nnc(NC(=O)c2ccc(-c3ccc(Cl)cc3)o2)n1	i	-0.3%	0.75
COc1ccc(/C(O)=C2/C(=O)C(=O)N(Cc3ccco3)C2c2cccs2)cc1 (stereo unspecified)	i	-9.1%	-0.05
O=C(CNS(=O)(=O)c1ccc(Br)s1)N1CCC(N2CCCCC2)CC1	i	-9.0%	-0.48
O=c1cc(NCc2ccccc2)c2ccccc2o1	i	2.0%	-0.26
O=C1c2ccccc2C(=O)N1CCc1nc2ccccc2c(=O)n1CCCn1ccnc1	i	-1.7%	2.1
COc1ccccc1-c1cc(C(F)(F)F)nc(N2CCCCC2)n1	i	-0.3%	.
O=C(OCCN=C1NS(=O)(=O)c2ccccc21)C1CC(=O)N(c2ccc(Cl)cc2)C1 (stereo unspecified)	i	-0.1%	1.2
Cc1oc(-c2ccccc2F)nc1CS(=O)(=O)CC(=O)NCCCN1CCc2ccccc2C1	i	-0.3%	0.09
CCOCCN1CCN(c2c(C)c(C)nc3cc(-c4cc(OC)cc(OC)c4)nn23)CC1	i	-0.9%	1.4
N=c1ccccn1CC(O)COc1ccccc1 (stereo unspecified)	i	-0.1%	0.36
CCCCNc1nc(CC)c2c(c1C#N)CCCC2	i	1.1%	.
O=C1CC(NC23CC4CC(CC(C4)C2)C3)C(=O)N1c1ccc2c(c1)OCO2 (stereo unspecified)	i	2.2%	0.37
CC1Cc2ccccc2N1C(=O)CSc1nc2cc3c(cc2cc1C#N)OCO3 (stereo unspecified)	i	-7.2%	0.8
CCC(C)(NC(=O)c1ccc(=O)[nH]c1)C(=O)NC1CCCC1 (stereo unspecified)	i	2.4%	-0.08
COc1ccc(CCNC(=O)CSC2=Nc3ccccc3C3=NC(C(C)C)C(=O)N23)cc1OC (stereo unspecified)	i	-0.6%	0.92
O=C(Nc1cccnc1)c1ccc(Br)s1	i	7.7%	0.78
CC(=O)Nc1ccc(S(=O)(=O)NCCC(=O)OCCN2C(=O)c3ccccc3C2=O)cc1	i	14%	-1.3
COc1cccc(C(=O)N2CCN(Cc3ccccn3)CC2)c1OC	i	3.1%	-0.3
CN=C(Nc1cc(C)nn1CCC#N)c1ccc(F)cc1	i	4.8%	0.1
CCOC(=O)/C(C#N)=C1/C=CNC(=O)N1	i	-2.4%	-0.98
CCOc1ccc(C(F)(F)F)cc1NC(C)=O	i	-7.4%	-0.28
N#Cc1c(SCc2cccc(Cl)c2)sc(C(=O)c2ccccc2)c1N	i	-7.0%	.
CCOC(=O)c1sc(NC(=O)c2cccnc2)nc1C	i	1.5%	-0.75
Nc1ccc(S(=O)(=O)c2ccc(N)cc2)cc1	i	-2.8%	-0.59
CS(=O)(=O)N1CCc2cc(C(=O)N3CCCCC3)ccc21	i	7.8%	-0.18
CC(=O)Nc1ccc(S(=O)(=O)NCC(C)NS(=O)(=O)c2ccc(NC(C)=O)cc2)cc1 (stereo unspecified)	i	4.6%	0.07
O=C(O)c1cccc(Nc2ncnc3c2cnn3-c2ccccc2)c1	i	1.7%	.
O=C1CC(c2ccccc2)CC2=C1C(c1ccccn1)Nc1ccccc1N2 (stereo unspecified)	i	-4.1%	.
CC(C)(C)NC1=CC(=O)OC12CCCCC2	i	-5.4%	-0.78
COc1cccc(N2CC(C)Cn3c2nc2c3c(=O)n(CCN3CCOCC3)c(=O)n2C)c1 (stereo unspecified)	i	-1.2%	0.02
O=C(C1CCN(S(=O)(=O)c2cccc3nsnc23)CC1)N1CCc2ccccc2C1	i	1.8%	-0.05
CCCCCn1c(=NC(C)=O)c(C#N)cc2c(=O)n3ccccc3nc21	i	-0.4%	1.2
COc1ccc(-c2nc(-c3ccccc3)c(-c3cccs3)[nH]2)cc1OC	i	-2.4%	.
Cc1ccc2cccc(S(=O)(=O)N3CCN(c4cccc(Cl)c4)CC3)c2n1	i	1.3%	-0.51
CCOC(=O)CSC1=C(C#N)C(c2ccccc2C)C2=C(CCCC2=O)N1 (stereo unspecified)	i	2.4%	0.16
CC(C)Sc1nnc([C@@H]2CCCN2C(=O)OC(C)(C)C)o1	i	2.2%	-0.06
O=C(Cn1cnc2c(oc3ccccc32)c1=O)N1CCN(c2ccccc2)CC1	i	-2.4%	0.41

Full records, quoted from the list. Screens in order: MT1-MMP promoter, Hsc70, WNV NS2B-NS3 inh
`COc1cccc(N2CC(C)Cn3c2nc2c3c(=O)n(CCN3CCOCC3)c(=O)n2C)c1` (stereo unspecified) in the list: i, -1.2%, 0.02
`O=C(C1CCN(S(=O)(=O)c2cccc3nsnc23)CC1)N1CCc2ccccc2C1` in the list: i, 1.8%, -0.05
`CC(C)Sc1nnc([C@@H]2CCCN2C(=O)OC(C)(C)C)o1` in the list: i, 2.2%, -0.06
`O=C(Cn1cnc2c(oc3ccccc32)c1=O)N1CCN(c2ccccc2)CC1` in the list: i, -2.4%, 0.41

(more compounds)
SMILES	MT1-MMP promoter	Hsc70	WNV NS2B-NS3 inh
Cc1nn2c3ccccc3n(Cc3ccccc3)c2nc1=O	i	0.7%	.
O=C1CN(C(=O)COC(=O)C23CC4CC(CC(O)(C4)C2)C3)c2ccccc2N1	i	5.2%	-1.1
Cc1c(C)c2cc(Cl)c(O)c(CN3CCCCC3)c2oc1=O	i	7.8%	1.2
Cc1nnc(SCC(=O)c2c(N)n(C)c(=O)n(C)c2=O)[nH]c1=O	i	-1.8%	-1
CCn1c(SCC(=O)NC2CCCCC2C)nnc1-c1ccc(OC)cc1 (stereo unspecified)	i	2.2%	0.58
Cc1nc2ncnn2c(C)c1CCC(=O)O	i	2.7%	0.6
CN(C)C(=O)COn1c(SCC(=O)N(C)C)nc2ccccc2c1=O	i	-9.8%	0.39
CC(C#N)On1c(SC(C)C#N)nc2ccccc2c1=O (stereo unspecified)	i	3.4%	0.18
CCCCOC(=O)Cn1c(=O)oc2ccc(C)cc21	i	-0.5%	0.45
O=C(NCCCn1ccnc1)C(Cc1ccc([N+](=O)[O-])cc1)N1C(=O)c2ccccc2C1=O (stereo unspecified)	i	1.2%	.
CC1CCN(C(C(=O)Nc2ccc3c(c2)OCO3)c2ccccc2)CC1 (stereo unspecified)	i	0.7%	-1.5
CN(C)c1ccc(NC(=O)Cn2ncn3c(cc4ccccc43)c2=O)cc1	i	8.0%	0.15
COc1cccc(C2(O)CCN(C(=O)C3CC3)CC2)c1	i	1.3%	-0.12
CCOC(=O)c1ccc2nc(NC(=O)C(C)C)sc2c1	i	-3.2%	-0.45
O=S(c1ccsc1)c1ccsc1	i	0.1%	-0.24
CCOc1ccc(/C=N/NC(=S)Nc2c(C)cccc2C)cc1	i	5.4%	.
COc1ccc(OC)c(NC(=O)C2CCCN(S(=O)(=O)c3c(C)noc3C)C2)c1 (stereo unspecified)	i	-1.2%	-0.09
COc1ccc2c(c1)cc1n2CCN=C1NCCO	i	3.4%	.
